Bioassay records deposited in PubChem BioAssay by Broad Institute.
FGF22 binding: shifts melting point of recombinant human FGF22 | AID 651658 | recombinant FGF22 thermal shift, SYPRO orange fluorescence; percent of sucrose octasulfate shift, DMSO zero | calls only at 9.99 µM | Q9HCT0 | 340,000 tested, 1.5% active;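 active = melting point raised past a set limit in the mean and every replicate; three in four hits are not shown here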
Target sequence (Q9HCT0 whole entry, looked up): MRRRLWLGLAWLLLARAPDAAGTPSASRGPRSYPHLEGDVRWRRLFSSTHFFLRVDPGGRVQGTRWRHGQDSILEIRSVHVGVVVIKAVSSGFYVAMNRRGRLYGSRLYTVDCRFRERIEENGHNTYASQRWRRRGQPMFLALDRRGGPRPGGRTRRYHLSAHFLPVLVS
Calls only; i = inactive; + = active, no number. Some of the compounds tested; rates above refer to the full screens.

CCCC#Cc1ccc([C@@H]2[C@H]3CN(CC4CCOCC4)CCCCN3[C@H]2CO)cc1
  FGF22 binding: i
COc1ccc(S(=O)(=O)Nc2ccc3c(c2)C(=O)N([C@H](C)CO)C[C@H](C)[C@H](CN(C)Cc2ccncc2)OCCCC[C@H](C)O3)cc1
  FGF22 binding: i
C[C@@H]1CN([C@@H](C)CO)S(=O)(=O)c2ccc(C#C[C@@H](C)O)cc2O[C@@H]1CN(C)Cc1ccccc1
  FGF22 binding: i
COc1ccccc1CNC(=O)C[C@H]1CC[C@@H]2[C@H](COC[C@@H](O)CN2C(=O)Nc2ccc(Cl)cc2)O1
  FGF22 binding: i
O=C(C[C@@H]1CC[C@@H](NC(=O)C2CCC2)[C@H](CO)O1)NC1CCC1
  FGF22 binding: i
C[C@@H]1CN([C@@H](C)CO)C(=O)c2c(c3ccccc3n2C)-c2ccccc2CO[C@H]1CN(C)S(=O)(=O)c1cccs1
  FGF22 binding: i
COc1ccc2c3c(n(C)c2c1)[C@H](CO)N(C(=O)NC(C)C)CC31CCN(CC2CCCC2)CC1
  FGF22 binding: i
O=C(O)C[C@H]1C=C[C@H](NC(=O)Nc2ccccc2)[C@@H](CO)O1
  FGF22 binding: i
C[C@@H]1CN([C@H](C)CO)C(=O)c2cc(C#CC3(O)CCCC3)cnc2O[C@H]1CN(C)S(=O)(=O)c1ccccc1
  FGF22 binding: i
C[C@@H]1CN([C@@H](C)CO)C(=O)c2cccc(NS(=O)(=O)c3ccc(F)cc3)c2O[C@@H]1CN(C)Cc1ccc(C(=O)O)cc1
  FGF22 binding: i
CCC(=O)N(C)C[C@H]1Oc2ncc(C#Cc3ccccc3OC)cc2C(=O)N([C@@H](C)CO)C[C@@H]1C
  FGF22 binding: i
CCNC(=O)C[C@H]1CC[C@H]2[C@H](COc3ccc(NC(=O)Nc4cccc(OC)c4)cc3C(=O)N2C)O1
  FGF22 binding: i
C[C@@H]1CCCCO[C@H](CN(C)S(=O)(=O)c2ccc(F)cc2)[C@@H](C)CN([C@H](C)CO)C(=O)c2cc(NC(=O)Nc3ccc(F)cc3)ccc2O1
  FGF22 binding: i
O=C(C[C@@H]1C=C[C@H](NC(=O)C2CC2)[C@H](CO)O1)NCCCN1CCOCC1
  FGF22 binding: i
C[C@@H]1CCCCO[C@H](CN(C)S(=O)(=O)c2ccccc2)[C@@H](C)CN([C@@H](C)CO)C(=O)c2cc(N(C)C)ccc2O1
  FGF22 binding: i

CCCNC(=O)N1C[C@@H](O)COC[C@H]2O[C@@H](CC(=O)N3CCC(Cc4ccccc4)CC3)CC[C@@H]21
  FGF22 binding: i
C[C@H]1CN([C@@H](C)CO)C(=O)c2cccc(NS(=O)(=O)c3ccc(F)cc3)c2O[C@@H]1CN(C)Cc1ccc(Cl)c(Cl)c1
  FGF22 binding: i
C[C@@H]1CCCCO[C@@H](CN(C)Cc2ccc3c(c2)OCO3)[C@@H](C)CN([C@@H](C)CO)C(=O)c2cc(NC(=O)Nc3ccc(C(F)(F)F)cc3)ccc2O1
  FGF22 binding: i
C[C@@H]1CCCCO[C@H](CN(C)C(=O)c2ccccc2)[C@H](C)CN([C@@H](C)CO)C(=O)c2cc(NS(=O)(=O)c3ccccc3)ccc2O1
  FGF22 binding: i
C[C@@H]1CN([C@H](C)CO)C(=O)c2cc(-c3ccccc3F)cnc2O[C@H]1CN(C)C(=O)CN(C)C
  FGF22 binding: i
CCCC#Cc1ccc([C@@H]2[C@H](CO)N3CCCCN(S(=O)(=O)Cc4ccccc4)C[C@@H]23)cc1
  FGF22 binding: i
CO[C@@H]1CN(C)C(=O)c2cc(NC(=O)c3ccccc3F)ccc2OC[C@@H](C)N(C(=O)c2ccccc2F)C[C@H]1C
  FGF22 binding: i
O=C(C[C@@H]1C[C@@H]2c3cc(NC(=O)CC4CC4)ccc3O[C@@H]2[C@H](CO)O1)NCc1cccnc1
  FGF22 binding: i
C[C@H]1CN([C@@H](C)CO)C(=O)c2cc(NS(=O)(=O)c3ccc(F)cc3)ccc2O[C@H]1CN(C)C(=O)Nc1ccccc1
  FGF22 binding: i
COc1ccccc1NC(=O)N1C[C@@H](O)COC[C@H]2O[C@H](CC(=O)NCCc3ccccc3)CC[C@@H]21
  FGF22 binding: i
CC(C)NC(=O)N(C)C[C@@H]1Oc2ncc(C#CCc3ccccc3)cc2C(=O)N([C@@H](C)CO)C[C@@H]1C
  FGF22 binding: i
CO[C@@H](CN(C)S(=O)(=O)c1ccc(F)cc1)[C@@H](C)CN(Cc1ccccc1Cl)[C@@H](C)CO
  FGF22 binding: i
CCCC#Cc1ccc([C@H]2[C@H](CO)N3CCCCN(C(=O)c4ccc5c(c4)OCO5)C[C@@H]23)cc1
  FGF22 binding: i
CN1C(=O)c2cc(NC(=O)Cc3cccs3)ccc2OC[C@H]2O[C@@H](CC(=O)NCCc3ccncc3)CC[C@H]21
  FGF22 binding: i
CC(=O)N1[C@H](C(=O)Nc2ccccc2)[C@@H](CO)[C@@H]2Cn3c(ccc(C4=CCCCC4)c3=O)[C@@H]21
  FGF22 binding: i

4 entries picked at random from the list so far, as already listed:
C[C@H]1CN([C@@H](C)CO)C(=O)c2cc(NS(=O)(=O)c3ccc(F)cc3)ccc2O[C@H]1CN(C)C(=O)Nc1ccccc1
  FGF22 binding: i
CN1C(=O)c2cc(NC(=O)Cc3cccs3)ccc2OC[C@H]2O[C@@H](CC(=O)NCCc3ccncc3)CC[C@H]21
  FGF22 binding: i
COc1ccccc1NC(=O)N1C[C@@H](O)COC[C@H]2O[C@H](CC(=O)NCCc3ccccc3)CC[C@@H]21
  FGF22 binding: i
CC(=O)N1[C@H](C(=O)Nc2ccccc2)[C@@H](CO)[C@@H]2Cn3c(ccc(C4=CCCCC4)c3=O)[C@@H]21
  FGF22 binding: i

(continued)
CCCN1[C@H](C(=O)OC)[C@@H](CO)[C@@H]2Cn3c(ccc(-c4ccc(F)cc4)c3=O)[C@@H]21
  FGF22 binding: i
C[C@@H]1CCCCO[C@@H](CN(C)Cc2ccncc2)[C@@H](C)CN([C@H](C)CO)C(=O)c2cc(NC(=O)C3CCCCC3)ccc2O1
  FGF22 binding: i
CCC(=O)Nc1ccc2c(c1)C(=O)N(C)C[C@@H](OC)[C@H](C)CN(Cc1ccncc1)[C@H](C)CO2
  FGF22 binding: i
CC=Cc1ccc2n(c1=O)C[C@H]1[C@H](CO)[C@@H](C(=O)N[C@H](C)c3ccccc3)[C@@H]2N1CC1CC1 (mixture of isomers)
  FGF22 binding: i
C[C@H](CO)N1C[C@H](C)[C@@H](CN(C)S(=O)(=O)c2ccc(F)cc2)OCCCC[C@H](C)Oc2ccc(NC(=O)NC3CCCCC3)cc2C1=O
  FGF22 binding: i
CN1CCN(C(=O)C[C@H]2C[C@H]3c4cc(NC(=O)Nc5ccc(F)cc5)ccc4O[C@H]3[C@H](CO)O2)CC1
  FGF22 binding: i
CC=Cc1ccc2n(c1=O)C[C@H]1[C@H](CO)[C@@H](C(=O)N3CCOCC3)[C@@H]2N1CC1CCCC1 (mixture of isomers)
  FGF22 binding: i
N#C[C@@H]1[C@@H](c2ccccc2-c2ccc(F)cc2)[C@H](CO)N1C(=O)NC1CCCCC1
  FGF22 binding: i
C[C@@H]1CN([C@H](C)CO)C(=O)c2cc(NS(C)(=O)=O)ccc2O[C@H]1CN(C)C
  FGF22 binding: i
COc1ccc(NC(=O)N(C)C[C@H]2Oc3c(NC(=O)Nc4ccc(F)cc4)cccc3C(=O)N([C@@H](C)CO)C[C@H]2C)cc1
  FGF22 binding: i
CCC(=O)N1CCC2(CC1)CN(C(=O)c1cnccn1)[C@H](CO)c1c2c2ccc(OC)cc2n1C
  FGF22 binding: i
CC(C)NC(=O)Nc1ccc2c(c1)C(=O)N([C@@H](C)CO)C[C@@H](C)[C@H](CN(C)Cc1ccccc1)OCCCC[C@@H](C)O2
  FGF22 binding: i
CC(=O)N1[C@H](CNC(=O)C2CC2)[C@H](c2ccc(-c3ccccc3)cc2)[C@@H]1CO
  FGF22 binding: i
O=C(C[C@@H]1CC[C@H]2[C@@H](COC[C@H](O)CN2Cc2ccc(C(F)(F)F)cc2)O1)NCCc1ccccc1
  FGF22 binding: i
CCCCNC(=O)C(c1ccc(-c2ccccc2)cc1)N(CCN1CCOCC1)C(=O)CCCCCN1C(=O)NC(c2ccc([N+](=O)[O-])cc2)C(C(=O)OCc2ccccc2)=C1C (stereo not drawn)
  FGF22 binding: i

COc1ccc(CNC(=O)C[C@H]2CC[C@@H](NC(=O)c3cccc(F)c3)[C@@H](CO)O2)cc1
  FGF22 binding: i
N#Cc1cccc(-c2ccc([C@@H]3[C@@H](CO)N4CCCCN(Cc5ccccc5F)C[C@@H]34)cc2)c1
  FGF22 binding: i
O=C(N[C@H]1CC[C@H](CCn2cc(C3(O)CCCC3)nn2)O[C@@H]1CO)C1CCC1
  FGF22 binding: i
CS(=O)(=O)Nc1ccc2c(c1)[C@@H]1C[C@H](CC(=O)NCc3ccc(Oc4ccccc4)cc3)O[C@H](CO)[C@@H]1O2
  FGF22 binding: i
CC(C)CC#Cc1ccc2c(c1)O[C@@H](CN(C)C(=O)Cc1ccccn1)[C@H](C)CN([C@H](C)CO)S2(=O)=O
  FGF22 binding: i
C=CCNc1cccc2c1S(=O)(=O)N[C@H](CC(C)C)CO2
  FGF22 binding: i
O=S(=O)(c1cccs1)N1CCCCN2[C@@H](CO)[C@@H](c3ccc(/C=C/c4ccccc4)cc3)[C@@H]2C1
  FGF22 binding: i
Cc1ccc(S(=O)(=O)Nc2cccc3c2O[C@@H](CN(C)S(=O)(=O)c2cccs2)[C@H](C)CN([C@@H](C)CO)C3=O)cc1
  FGF22 binding: i
Cc1ccc(S(=O)(=O)Nc2cccc3c2O[C@@H](CN(C)Cc2ccc(C(F)(F)F)cc2)[C@H](C)CN([C@H](C)CO)C3=O)cc1
  FGF22 binding: i
O=C(c1cccnc1)N1C[C@H]2[C@@H](c3ccccc31)[C@@H](CO)N2C(=O)Nc1ccccc1F
  FGF22 binding: i
C/C=C/c1ccc([C@H]2[C@H](CO)N3CCCCN(C(=O)Nc4ccc(OC)cc4)C[C@@H]23)cc1
  FGF22 binding: i
C[C@H]1CCCCO[C@H](CN(C)S(=O)(=O)c2ccccc2)[C@@H](C)CN([C@@H](C)CO)C(=O)c2cc(NS(=O)(=O)c3ccc(Cl)cc3)ccc2O1
  FGF22 binding: i
C[C@@H]1CN([C@H](C)CO)S(=O)(=O)c2ccc(C#CC3CC3)cc2O[C@@H]1CN(C)Cc1ccc(F)cc1
  FGF22 binding: i
COc1ccccc1CNC(=O)C[C@@H]1C=C[C@H](NC(C)=O)[C@@H](CO)O1
  FGF22 binding: i
COc1cccc(S(=O)(=O)N(C)C[C@@H]2Oc3cc(C#CCC(C)C)ccc3S(=O)(=O)N([C@H](C)CO)C[C@H]2C)c1
  FGF22 binding: i

CC(C)NC(=O)N1CCCCN2[C@@H](CO)[C@@H](c3ccc(C#Cc4ccccc4)cc3)[C@@H]2C1
  FGF22 binding: i
C[C@@H]1CN([C@@H](C)CO)C(=O)c2cc(NS(C)(=O)=O)ccc2O[C@@H]1CN(C)Cc1ccc2c(c1)OCO2
  FGF22 binding: +
C[C@@H]1CN([C@H](C)CO)C(=O)Cc2cc(NC(=O)C3CC3)ccc2O[C@H]1CN(C)Cc1ccc(C(=O)O)cc1
  FGF22 binding: i
CNC[C@@H]1Oc2cc(C#Cc3cccc(F)c3)ccc2S(=O)(=O)N([C@H](C)CO)C[C@H]1C
  FGF22 binding: i
COc1ccc2c3c([nH]c2c1)[C@@H](CO)N(C(=O)Nc1cccc(F)c1)CC31CN(S(=O)(=O)c2cccc(C)c2)C1
  FGF22 binding: i
O=C(N[C@H]1CC[C@H](CCn2cc(C3CC3)nn2)O[C@H]1CO)c1cccnc1
  FGF22 binding: i
C[C@@H]1CN([C@@H](C)CO)C(=O)CCCn2cc(nn2)CO[C@H]1CN(C)Cc1ccc(C(F)(F)F)cc1
  FGF22 binding: i
O=C(C[C@H]1CC[C@@H]2[C@H](COC[C@H](O)CN2C(=O)Nc2cccc(F)c2)O1)NCCCN1CCOCC1
  FGF22 binding: i
C[C@@H]1CN([C@@H](C)CO)C(=O)c2cccc(NS(C)(=O)=O)c2O[C@@H]1CN(C)Cc1ccc(Cl)c(Cl)c1
  FGF22 binding: i
CCC(=O)N1C[C@H](C)[C@H](OC)CN(C)C(=O)c2cc(NC(=O)NC3CCCC3)ccc2OC[C@@H]1C
  FGF22 binding: i
C[C@@H]1CN([C@@H](C)CO)C(=O)Cc2cc(NC(=O)NC3CCCCC3)ccc2O[C@@H]1CN(C)Cc1ccc2c(c1)OCO2
  FGF22 binding: i
CCNC(=O)C[C@@H]1CC[C@H]2[C@H](COc3ccc(NS(C)(=O)=O)cc3C(=O)N2C)O1
  FGF22 binding: i
Cc1noc(C)c1NC(=O)N(C)C[C@H]1OCCCC[C@@H](C)Oc2ccc(NC(=O)Cc3ccccc3)cc2C(=O)N([C@@H](C)CO)C[C@@H]1C
  FGF22 binding: i
COc1ccc(C(=O)N2C[C@@H]3[C@H](c4ccccc42)[C@H](CO)N3Cc2ccccc2)cc1
  FGF22 binding: i
OC[C@H]1[C@@H](c2ccc(-c3cccc(F)c3)cc2)[C@@H]2CN(Cc3cncnc3)CCCCN12
  FGF22 binding: i

C/C=C/c1ccc2c(c1)O[C@H](CN(C)C(=O)NCCC)[C@H](C)CN([C@H](C)CO)S2(=O)=O
  FGF22 binding: i
CCC(=O)N1C[C@H](O)COC[C@@H]2O[C@@H](CC(=O)NCc3ccccc3Cl)CC[C@H]21
  FGF22 binding: i
COc1ccc(NC(=O)N(C)C[C@H]2Oc3ccc(NS(=O)(=O)c4ccccc4)cc3CC(=O)N([C@H](C)CO)C[C@H]2C)cc1
  FGF22 binding: i
CO[C@@H]1CN(C)C(=O)c2ccc(NC(=O)c3cc(C)on3)cc2OC[C@H](C)N(C)C[C@@H]1C
  FGF22 binding: i
O=C(C[C@@H]1C[C@@H]2c3cc(NC(=O)Cc4ccncc4)ccc3O[C@@H]2[C@H](CO)O1)NCc1ccncc1
  FGF22 binding: i
C[C@H](CO)N1C[C@H](C)[C@H](CN(C)C(=O)Nc2ccc3c(c2)OCO3)Oc2ccc(NC(=O)c3ccncc3)cc2C1=O
  FGF22 binding: i
COc1cccc(-c2cnc3c(c2)C(=O)N([C@H](C)CO)C[C@H](C)[C@H](CN(C)S(C)(=O)=O)O3)c1
  FGF22 binding: i

With a hit mark in FGF22 binding, among the entries above:
C[C@@H]1CN([C@@H](C)CO)C(=O)c2cc(NS(C)(=O)=O)ccc2O[C@@H]1CN(C)Cc1ccc2c(c1)OCO2
  FGF22 binding: +
